# c-Myc SMM: binds human c-Myc on microarray; P01106; small molecule microarray, His-c-Myc binding, anti-His fluorescence; calls only; 17,000 compounds, 1.5% hits; AID 624141;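 active = spot fluorescence over background with P-value below 7% in all four replicate spots, showing protein binding; compounds were printed on slides so no solution concentration is given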;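 also: score is binary with 100 for all four spots passing and 0 otherwise; about 2 pmol printed per array spot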
# Target sequence (P01106 whole entry, looked up): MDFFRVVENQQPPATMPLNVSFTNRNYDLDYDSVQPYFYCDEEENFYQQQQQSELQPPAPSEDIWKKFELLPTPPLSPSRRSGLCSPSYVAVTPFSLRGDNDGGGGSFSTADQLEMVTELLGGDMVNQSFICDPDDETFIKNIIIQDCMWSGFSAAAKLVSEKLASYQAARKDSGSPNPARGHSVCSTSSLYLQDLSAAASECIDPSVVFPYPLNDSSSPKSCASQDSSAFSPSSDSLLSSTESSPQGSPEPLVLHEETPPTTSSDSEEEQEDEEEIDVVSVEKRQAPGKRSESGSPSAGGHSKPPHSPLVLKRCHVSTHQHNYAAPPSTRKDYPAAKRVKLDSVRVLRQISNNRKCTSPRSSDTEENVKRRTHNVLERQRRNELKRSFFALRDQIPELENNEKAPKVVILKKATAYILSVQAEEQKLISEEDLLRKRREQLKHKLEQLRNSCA
# STAT3 binder: binds human STAT3 on microarray. P40763. Small molecule microarray, His-STAT3 binding, anti-His fluorescence. calls only. 17,000 compounds, 0.2% hits. AID 624138;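 active = compounds whose four printed spots each show fluorescence over background unusually high for their array block, chance value under 7%; compounds were printed on slides so no solution concentration is given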;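 also: about 2 pmol printed per array spot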
# ID4 binder: binds human ID4 protein on microarray; small molecule microarray, Flag-ID4 binding, fluorescence F/B; calls only; 31,000 compounds, 1.2% hits;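 active = spot signal over background at p below 0.07 in all four prints; compounds were printed on slides so no solution concentration is given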;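 also: a binder raises fluorescence above local background on the spot; about 2 pmol printed per array spot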
# Target sequence (P47928 whole entry, looked up): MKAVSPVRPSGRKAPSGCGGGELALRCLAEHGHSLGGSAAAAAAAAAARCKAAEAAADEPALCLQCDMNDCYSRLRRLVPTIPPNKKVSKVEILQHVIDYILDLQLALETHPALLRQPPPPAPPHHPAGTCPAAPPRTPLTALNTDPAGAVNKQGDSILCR
# mut p53 SMM: binds human mutant p53 on microarray | small molecule microarray binding, anti-GST fluorescence | calls only | 17,000 compounds, 0.4% hits | AID 624136;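 active = compounds whose four printed spots each glow above background more than chance allows, each with a p-value under 7%; compounds were printed on slides so no solution concentration is given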;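 also: about 2 pmol printed per array spot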
# Calls only; i = inactive; / = not tested or not shown. An excerpt; the hit share may differ from the screen's.
SMILES,c-Myc SMM,STAT3 binder,ID4 binder,mut p53 SMM
C[C@@H]1CN([C@@H](C)CO)C(=O)c2cccc(N(C)C)c2O[C@H]1CN(C)C(=O)Nc1ccc(C(F)(F)F)cc1,i,i,i,i
C[C@@H]1CN([C@H](C)CO)C(=O)Cc2cc(NS(=O)(=O)c3ccc(Cl)cc3)ccc2O[C@@H]1CN(C)C(=O)Nc1ccc(F)cc1,i,i,i,i
COc1ccc(S(=O)(=O)Nc2ccc3c(c2)CC(=O)N([C@H](C)CO)C[C@@H](C)[C@H](CN(C)Cc2ccc(C(F)(F)F)cc2)O3)cc1,i,i,i,i
C[C@@H]1CN([C@@H](C)CO)C(=O)c2cc(NC(=O)Cn3cnnn3)ccc2O[C@H]1CN(C)S(=O)(=O)c1cccs1,i,i,i,i
CNC[C@@H]1Oc2c(NC(=O)c3cnccn3)cccc2C(=O)N([C@H](C)CO)C[C@@H]1C,i,i,i,i
CC(=O)O[C@@H]1[C@@H](OC(=O)/C=C/c2ccccc2)[C@@H](OC(C)=O)[C@H](O[C@H]2[C@@H]3C=CO[C@@H](O[C@@H]4O[C@H](CO)[C@@H](O)[C@H](O)[C@H]4O)[C@@H]3[C@@]3(CO)O[C@@H]23)O[C@H]1C,i,i,i,i
CCNc1nc(Oc2ccc(=O)[nH]n2)nc(SC)n1,i,i,i,i
C[C@H](CO)N1C[C@H](C)[C@H](CN(C)C)Oc2c(NS(=O)(=O)c3ccccc3)cccc2C1=O,i,i,i,i
CNC[C@@H]1Oc2ccc(NC(=O)Cc3ccccc3)cc2C(=O)N([C@@H](C)CO)C[C@H]1C,i,i,i,i
C[C@H](CO)N1C[C@H](C)[C@@H](CN(C)C(=O)Nc2cccc3ccccc23)Oc2ccc(NC(=O)NC3CCCCC3)cc2C1=O,i,i,i,i
COc1ccc(S(=O)(=O)N(C)C[C@H]2Oc3ccc(NC(=O)Nc4c(C)noc4C)cc3CC(=O)N([C@H](C)CO)C[C@H]2C)cc1,i,i,/,i
C[C@H]1CN([C@@H](C)CO)C(=O)Cc2cc(NC(=O)C3CC3)ccc2O[C@H]1CN(C)Cc1ccc(C(=O)O)cc1,i,i,/,i
Cc1noc(C)c1NC(=O)Nc1cccc2c1O[C@@H](CN(C)CC1CC1)[C@H](C)CN([C@H](C)CO)C2=O,i,i,i,i
CC1(C)CC[C@]2(C(=O)O[C@@H]3O[C@H](CO)[C@@H](O)[C@H](O)[C@H]3O)CC[C@]3(C)C(=CCC4[C@@]5(C)CC[C@H](O[C@@H]6OC[C@H](O)[C@H](O)[C@H]6O[C@@H]6O[C@H](CO)[C@@H](O)[C@H](O)[C@H]6O[C@@H]6OC[C@H](O)[C@H](O)[C@H]6O)[C@@](C)(CO)C5CC[C@]43C)C2C1 (stereo partly specified),i,i,/,i
Cc1noc(C)c1S(=O)(=O)Nc1ccc2c(c1)C(=O)N([C@@H](C)CO)C[C@@H](C)[C@H](CN(C)C(=O)NC1CCCCC1)O2,i,i,i,i
CC1CC2(CC(C)(C(=O)CSc3n[nH]c(-c4ccccc4Cl)n3)OC2=O)C(=O)O1 (stereo unspecified),i,i,i,i
O=c1n(-c2ccccc2)c(=O)n2n1CC(COc1ccccc1)=C1[C@@H](c3ccccc3)OB(O)C[C@@H]12,i,i,i,i
CC(C)NC(=O)N(C)C[C@H]1OCCCC[C@H](C)Oc2ccc(NC(=O)Nc3cccc4ccccc34)cc2C(=O)N([C@H](C)CO)C[C@H]1C,i,i,i,i
CNC[C@@H]1OCCCC[C@H](C)Oc2ccc(NC(=O)NC(C)C)cc2C(=O)N([C@@H](C)CO)C[C@@H]1C,i,i,i,i
C=CCc1ccc(O)c(-c2cc(CC=C)ccc2O)c1,i,i,/,i
C[C@H]1CN([C@@H](C)CO)C(=O)c2cc(NC(=O)Nc3ccc(C(F)(F)F)cc3)ccc2O[C@@H]1CN(C)C(=O)NC1CCCCC1,i,i,i,i
COC(=O)c1ccc(CSc2nnc(-c3ccccc3)o2)o1,i,i,i,i
C[C@H](CO)N1C[C@H](C)[C@H](CN(C)S(=O)(=O)c2cccs2)OCCCC[C@H](C)Oc2ccc(NC(=O)c3ccncc3)cc2C1=O,i,i,i,i
C[C@@H]1CN([C@@H](C)CO)C(=O)Cc2cc(NC(=O)Nc3ccccc3)ccc2O[C@@H]1CN(C)S(=O)(=O)c1cn(C)cn1,i,i,i,i
O=[N+]([O-])c1ccc(NCCCn2ccnc2)nc1,i,i,i,i
C[C@@H]1CN([C@H](C)CO)C(=O)c2cc(NC(=O)Cn3cnnn3)ccc2O[C@H]1CN(C)C(=O)Nc1ccc(F)cc1,i,i,i,i
CC(C)NC(=O)N(C)C[C@H]1Oc2ccc(NS(=O)(=O)c3cccs3)cc2CC(=O)N([C@H](C)CO)C[C@@H]1C,i,i,i,i
C[C@@H]1CN([C@@H](C)CO)C(=O)c2cccc(NC(=O)Nc3cccc4ccccc34)c2O[C@H]1CN(C)C(=O)Nc1cccc2ccccc12,i,i,i,i
C[C@H]1CN([C@@H](C)CO)C(=O)c2cccc(NC(=O)C3CCOCC3)c2O[C@@H]1CN(C)Cc1ccc(Oc2ccccc2)cc1,i,i,i,i
O=C1C[C@@](C(=O)NCCN2CCOCC2)(c2ccc([N+](=O)[O-])cc2)[C@@H](c2ccc(CO)cc2I)N1CC12CC3CC(CC(C3)C1)C2,i,i,i,i
Cc1noc(C)c1NC(=O)N(C)C[C@H]1Oc2ccc(NS(=O)(=O)c3cn(C)cn3)cc2CC(=O)N([C@H](C)CO)C[C@@H]1C,i,i,i,i
C[C@H]1CN([C@@H](C)CO)C(=O)c2cccc(NC(=O)Nc3ccc(C(F)(F)F)cc3)c2O[C@@H]1CN(C)C(=O)Nc1ccc(F)cc1,i,i,i,i
COc1ccc(S(=O)(=O)N(C)C[C@@H]2Oc3ccc(NS(C)(=O)=O)cc3C(=O)N([C@@H](C)CO)C[C@H]2C)cc1,i,i,/,i
Cc1ccc(S(=O)(=O)NCC(=O)Nc2ccc(Cl)cc2Cl)cc1,i,i,i,i
O=S(=O)(NCc1ccccn1)c1ccc(I)cc1,i,i,i,i
CCOC(=O)N1CCN(Cc2nc(N)nc(Nc3ccc(Oc4ccccc4)cc3)n2)CC1,i,i,i,i
C[C@@H]1CN([C@@H](C)CO)C(=O)Cc2cc(NC(=O)Nc3ccc(C(F)(F)F)cc3)ccc2O[C@H]1CN(C)C(=O)NC1CCCCC1,i,i,i,i
CCCCCCC[C@@H](O)CC(=O)CCc1ccc(O)c(OC)c1,i,i,/,i
C[C@H]1CN([C@@H](C)CO)C(=O)c2cccc(NC(=O)c3cnccn3)c2O[C@H]1CN(C)CC1CC1,i,i,i,i
C[C@@H]1CN([C@@H](C)CO)C(=O)c2cccc(NC(=O)Nc3ccc(C(F)(F)F)cc3)c2O[C@H]1CN(C)S(=O)(=O)c1ccc(F)cc1,i,i,/,i
COc1ccc2[nH]c(=O)c(CN(C)C(=O)c3cccc(Cl)c3)cc2c1,i,i,i,i
C[C@H]1CN([C@@H](C)CO)C(=O)c2cccc(NC(=O)C3CCOCC3)c2O[C@H]1CN(C)Cc1ccc(Cl)c(Cl)c1,i,i,i,i
C[C@@H]1CN([C@@H](C)CO)C(=O)c2cc(NC(=O)c3ccncc3)ccc2O[C@@H](C)CCCCO[C@H]1CN(C)C(=O)Nc1ccccc1,i,i,/,i
CC(C)NC(=O)Nc1cccc2c1O[C@@H](CN(C)Cc1ccc(C(F)(F)F)cc1)[C@@H](C)CN([C@H](C)CO)C2=O,i,i,i,i
C[C@@H]1CN([C@H](C)CO)C(=O)Cc2cc(NC(=O)CCN3CCOCC3)ccc2O[C@@H]1CN(C)Cc1ccc(-c2ccccc2)cc1,i,i,i,i
COCCOC(=O)N1C(=O)[C@@]2(c3cc(C#CCCO)ccc31)[C@H](C(=O)NC[C@H](O)c1ccccc1)[C@H]1C(=O)O[C@H](c3ccccc3)[C@H](c3ccccc3)N1[C@@H]2c1ccccc1OCCO,i,i,/,i
CC(C)NC(=O)N(C)C[C@H]1Oc2ccc(NC(=O)C3CC3)cc2CC(=O)N([C@H](C)CO)C[C@H]1C,i,i,i,i
CC(C)NC(=O)N(C)C[C@H]1OCc2cnnn2CCCC(=O)N([C@H](C)CO)C[C@@H]1C,i,i,i,i
CCCC(O)C#Cc1cnc2c(c1)C(=O)N([C@H](C)CO)C[C@H](C)[C@H](CN(C)Cc1ccncc1)O2 (stereo partly specified),i,i,i,i
CCOC(=O)c1cc(-c2ccccc2)sc1NC(=S)Nc1cnccn1,i,i,i,i
C[C@@H]1CN([C@@H](C)CO)C(=O)c2cc(NS(=O)(=O)c3cccs3)ccc2O[C@@H](C)CCCCO[C@H]1CN(C)C,i,i,i,i
CNC[C@@H]1OCCCC[C@H](C)Oc2ccc(NC(=O)Nc3ccccc3)cc2C(=O)N([C@@H](C)CO)C[C@@H]1C,i,i,i,i
C[C@@H]1CCCCO[C@@H](CN(C)C(=O)c2ccccc2)[C@H](C)CN([C@@H](C)CO)C(=O)c2cc(NC(=O)Nc3ccc(F)cc3)ccc2O1,i,i,i,i
Cc1noc(C)c1NC(=O)Nc1cccc2c1O[C@@H](CN(C)S(=O)(=O)c1cn(C)cn1)[C@H](C)CN([C@@H](C)CO)C2=O,i,i,i,i
Cc1noc(C)c1S(=O)(=O)Nc1cccc2c1O[C@@H](CN(C)Cc1ccccc1)[C@@H](C)CN([C@H](C)CO)C2=O,i,i,i,i
C[C@H]1CN([C@@H](C)CO)C(=O)c2cc(NC(=O)Nc3ccc4c(c3)OCO4)ccc2O[C@@H]1CN(C)S(=O)(=O)c1cn(C)cn1,i,i,i,i
COc1ccc(OC(C)C(=O)NCC2CCCO2)cc1 (stereo unspecified),i,i,i,i
COc1cc(O)c2c(c1)O[C@H](c1ccc(O)c(O)c1)[C@@H](OC(C)=O)C2=O,i,i,/,i
C[C@@H]1CN([C@@H](C)CO)C(=O)c2cc(NC(=O)Nc3ccc(C(F)(F)F)cc3)ccc2O[C@@H](C)CCCCO[C@@H]1CN(C)C(=O)C1CCCCC1,i,i,/,i
CC(C)NC(=O)Nc1ccc2c(c1)C(=O)N([C@H](C)CO)C[C@H](C)[C@@H](CN(C)Cc1ccc(C(F)(F)F)cc1)O2,i,i,/,i

# Not a retest: five of the compounds above.
SMILES,c-Myc SMM,STAT3 binder,ID4 binder,mut p53 SMM
COc1ccc2[nH]c(=O)c(CN(C)C(=O)c3cccc(Cl)c3)cc2c1,i,i,i,i
C[C@H]1CN([C@@H](C)CO)C(=O)c2cccc(NC(=O)C3CCOCC3)c2O[C@H]1CN(C)Cc1ccc(Cl)c(Cl)c1,i,i,i,i
C[C@@H]1CN([C@@H](C)CO)C(=O)c2cc(NC(=O)c3ccncc3)ccc2O[C@@H](C)CCCCO[C@H]1CN(C)C(=O)Nc1ccccc1,i,i,/,i
CC(C)NC(=O)Nc1cccc2c1O[C@@H](CN(C)Cc1ccc(C(F)(F)F)cc1)[C@@H](C)CN([C@H](C)CO)C2=O,i,i,i,i
C[C@@H]1CN([C@H](C)CO)C(=O)Cc2cc(NC(=O)CCN3CCOCC3)ccc2O[C@@H]1CN(C)Cc1ccc(-c2ccccc2)cc1,i,i,i,i

# (more compounds)
SMILES,c-Myc SMM,STAT3 binder,ID4 binder,mut p53 SMM
COc1ccc(NC(=O)Nc2nn(Cc3c(F)cccc3Cl)cc2Cl)cc1OC,i,i,i,i
C[C@H](CO)N1C[C@H](C)[C@H](CN(C)S(=O)(=O)c2cccs2)Oc2ncc(-c3ccc(F)cc3)cc2C1=O,i,i,i,i
C[C@@H]1CN([C@H](C)CO)C(=O)c2cc(NS(=O)(=O)c3ccccc3)ccc2O[C@@H](C)CCCCO[C@@H]1CN(C)C(=O)CCC(F)(F)F,i,i,i,i
O=C1CC(C(=O)Nc2ccc3c(c2)OCCO3)n2ncnc2N1 (stereo unspecified),i,i,i,i
CNC[C@H]1Oc2ccc(NC(=O)NC(C)C)cc2CC(=O)N([C@@H](C)CO)C[C@H]1C,i,i,i,i
COc1ccc([C@@H]2C=C(C(=O)O)O[C@H](OCCCCO)C2)cc1,i,i,i,i
C=CCNC(=O)[C@@H]1[C@H]2C(=O)O[C@H](c3ccccc3)[C@H](c3ccccc3)N2[C@H](c2ccc(O)cc2)[C@@]12C(=O)N(C(=O)OCCOC)c1ccccc12,i,i,/,i
Cc1noc(C)c1NC(=O)Nc1ccc2c(c1)C(=O)N([C@H](C)CO)C[C@H](C)[C@H](CN(C)Cc1ccccc1)O2,i,i,/,i
Cc1ccccc1C(=O)Nc1cccc(NC(=O)COc2ccccc2Cl)c1,i,i,i,i
Cc1noc(C)c1NC(=O)N(C)C[C@H]1Oc2ccc(NC(=O)Cn3cnnn3)cc2CC(=O)N([C@@H](C)CO)C[C@H]1C,i,i,i,i
CNC[C@H]1Oc2ccc(NC(=O)CCC(F)(F)F)cc2CC(=O)N([C@H](C)CO)C[C@@H]1C,i,i,i,i
Cc1ccc2cccc(S(=O)(=O)NC3CCS(=O)(=O)C3)c2n1 (stereo unspecified),i,i,i,i
Cc1ccc(S(=O)(=O)N[C@@H]2CCCN(Cc3cccc(OCCO)c3)C2)cc1,i,i,i,i
CC(C)C1NC(=O)C(CC2(O)c3ccccc3N3C(=O)C(Cc4ccccc4)NC32)NC1=O (stereo unspecified),i,i,i,i

# Bioassay records: PubChem, Broad Institute
